# NOMO-1 viab – NOMO-1 AML cell viability reduction, primary screen, STK33 inhibitor project, CellTiter-Glo luminescence; 37,000 tested, 7.5% active; inhibition, % (test concentration not listed); AID 2330, 2010; NOMO-1 AML viability, 72 h;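 active = most replicates above 80%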;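 note: wells of about 30 µL received 25 nL stock; 0% = median of vehicle wells and 100% = reference inhibitor level; the first replicate is given; inactives centre near 10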
# The depositor's hits bear a star. These rows are one share of the data; count on the stated rates, not on these rows.
Compound	NOMO-1 viab
COc1ccc(S(=O)(=O)N(C)C[C@@H]2Oc3ccc(NC(=O)Nc4c(C)noc4C)cc3C(=O)N([C@@H](C)CO)C[C@@H]2C)cc1	6
C[C@H](CO)N1C[C@H](C)[C@H](CN(C)C(=O)Nc2ccc(C(F)(F)F)cc2)Oc2ccc(NC(=O)Cc3cn(C)c4ccccc34)cc2C1=O	34
CC1(C)CC[C@]2(C(=O)O)CC[C@]3(C)C(=CCC4[C@@]5(C)CC[C@H](O[C@@H]6O[C@H](C(=O)O)[C@@H](O[C@@H]7OC[C@@H](O)[C@H](O)[C@H]7O)[C@H](O)[C@H]6O)C(C)(C)C5CC[C@]43C)C2C1O (stereo partly specified)	-5
CNC[C@@H]1OCCCC[C@@H](C)Oc2ccc(NC(=O)Nc3ccc(F)cc3)cc2C(=O)N([C@H](C)CO)C[C@@H]1C	15
Cc1noc(C)c1NC(=O)N(C)C[C@H]1Oc2ccc(NC(=O)Nc3ccccc3)cc2C(=O)N([C@@H](C)CO)C[C@@H]1C	-10
C[C@@H]1CN([C@H](C)CO)C(=O)c2cccc(NS(=O)(=O)c3ccccc3)c2O[C@@H]1CN(C)Cc1ccc2c(c1)OCO2	1
COc1ccc(NC(=O)N(C)C[C@H]2Oc3ccc(NC(=O)Nc4ccc(F)cc4)cc3C(=O)N([C@H](C)CO)C[C@H]2C)cc1	8
CNC[C@@H]1Oc2ccc(NS(C)(=O)=O)cc2CC(=O)N([C@@H](C)CO)C[C@@H]1C	-10
C/C(=C\CCC(C)C1CC(O)C2(C)C3CCC4C(C)(C)C(OC5OCC(O)C(O)C5O)CCC45CC35CC(O)C12C)C(=O)O (stereo unspecified)	14
COc1ccc(OC)c(NC(=O)CSc2nc(-c3ccccc3)cs2)c1	21
CCC(C)NC(=O)CSc1ccc(Cl)cc1 (stereo unspecified)	16
COC(=O)c1cccc(NC(=O)CN(c2ccc(F)cc2)S(C)(=O)=O)c1C	109*
C[C@H]1CN([C@@H](C)CO)C(=O)Cc2cc(NC(=O)Nc3ccc4c(c3)OCO4)ccc2O[C@H]1CN(C)Cc1ccc(C(=O)O)cc1	7
C[C@@H]1CCCCO[C@H](CN(C)C(=O)CCC(F)(F)F)[C@@H](C)CN([C@H](C)CO)C(=O)c2cc(NC(=O)NC3CCCCC3)ccc2O1	24
C[C@H](CO)N1C[C@H](C)[C@H](CN(C)C(=O)Nc2cccc3ccccc23)Oc2c(NC(=O)c3nc4ccccc4s3)cccc2C1=O	45

# Next part:
Compound	NOMO-1 viab
C[C@H](CO)N1C[C@H](C)[C@H](CN(C)CC2CCCCC2)Oc2ccc(NC(=O)C3CC3)cc2C1=O	-19
O=C(NCc1ccco1)c1cc(-c2cccc(Cl)c2)nc2ccccc12	23
C=CCn1c(SCc2nc3ccccc3c(=O)[nH]2)nnc1-c1cc2cc(Cl)ccc2o1	44
Cc1cc(C)c(-c2csc(Cc3nc(-c4cc5ccccc5oc4=O)cs3)n2)cc1C	36
C/C=C1\[C@H](O[C@@H]2O[C@H](CO)[C@@H](O)[C@H](O)[C@H]2O)OC=C(C(=O)OC)[C@H]1CC(=O)OC[C@H]1O[C@@H](OCCc2ccc(O)cc2)[C@H](O)[C@@H](O)[C@@H]1OC(=O)C[C@@H]1C(C(=O)OC)=CO[C@@H](O[C@@H]2O[C@H](CO)[C@@H](O)[C@H](O)[C@H]2O)/C1=C\C	16
C[C@@H]1CN([C@H](C)CO)C(=O)Cc2cc(N(C)C)ccc2O[C@@H]1CN(C)C(=O)Nc1ccc2c(c1)OCO2	-12
Cc1noc(C)c1S(=O)(=O)N(C)C[C@H]1Oc2c(NS(=O)(=O)c3ccccc3)cccc2C(=O)N([C@@H](C)CO)C[C@H]1C	13
O=C(NCCCn1ccnc1)C1CCC1	-12
CNC[C@@H]1Oc2c(NC(=O)c3cc(C)nn3C)cccc2C(=O)N([C@H](C)CO)C[C@H]1C	27
CCOC(=O)c1c(NC(=O)Cn2nnc(-c3ccccc3)n2)sc2c1CCCC2	26
CC(C)(C)c1cc(NC(=O)CSc2n[nH]c(=O)n2-c2ccc3c(c2)OCCO3)cc(C(C)(C)C)c1	39
COc1cccc(-c2nn(-c3ccccc3)cc2C(=O)n2nnc3ccccc32)c1	128*
Cc1ccc(S(=O)(=O)N(C)C[C@@H]2Oc3c(NC(=O)Nc4c(C)noc4C)cccc3C(=O)N([C@@H](C)CO)C[C@H]2C)cc1	5
CC1O[C@@H](Oc2c(-c3ccc(O)c(O)c3)oc3cc(O)cc(O)c3c2=O)[C@H](O)[C@H](O)[C@H]1O (stereo partly specified)	4
COc1ccc(CN(C)C[C@H]2Oc3ccc(NC(=O)Cn4cnnn4)cc3C(=O)N([C@H](C)CO)C[C@@H]2C)cc1	1

# Later entries
Compound	NOMO-1 viab
CCC(C)C(O)(CC(=O)OCc1ccc(O[C@@H]2O[C@H](CO)[C@@H](O)[C@H](O)[C@H]2O)cc1)C(=O)OCc1ccc(O[C@@H]2O[C@H](CO)[C@@H](O)[C@H](O)[C@H]2O)cc1 (stereo partly specified)	20
Cc1ccc(S(=O)(=O)N(C)C[C@H]2Oc3c(NC(=O)C4CCCCC4)cccc3C(=O)N([C@@H](C)CO)C[C@H]2C)cc1	41
COc1ccc(NC(=O)N(C)C[C@@H]2Oc3c(NC(=O)C4CCCCC4)cccc3C(=O)N([C@@H](C)CO)C[C@@H]2C)cc1	20
Cc1noc(C)c1S(=O)(=O)N(C)C[C@@H]1Oc2ccc(NC(=O)C3CCCCC3)cc2CC(=O)N([C@H](C)CO)C[C@H]1C	9
CCC(C)C(O)C(C)(O)/C=C/C1=CC2=C(Cl)C(=O)C(C)(O)C(OC(C)=O)C2CO1 (stereo unspecified)	120*
Nc1nnc(SCC(=O)Nc2ccc(F)c(Cl)c2)n1-c1ccccc1	3
O=C(C(C(=O)N1CCCCC1)C12CC3CC(CC(C3)C1)C2)N1CCCCC1	14
CN(CC(=O)Nc1cccc([N+](=O)[O-])c1)S(=O)(=O)c1ccccc1	-11
C[C@H]1CN([C@@H](C)CO)C(=O)c2cc(NC(=O)Nc3ccc4c(c3)OCO4)ccc2O[C@@H]1CN(C)Cc1ccc2c(c1)OCO2	27
C[C@@H]1CN([C@H](C)CO)C(=O)c2cc(NC(=O)Cc3ccccc3)ccc2O[C@H]1CN(C)Cc1ccc(C(=O)O)cc1	-3
CC1=C(C(=O)Nc2cccnc2)C(c2cccc(O)c2)n2nc(SCc3ccccc3)nc2N1 (stereo unspecified)	-21
COc1ccc(C(Nc2ccccn2)c2ccc3ccc(C)nc3c2O)cc1C (stereo unspecified)	59
COc1ccc(N2C(=O)CC(SCC(=O)Nc3ccc(Cl)c(Cl)c3)C2=O)cc1 (stereo unspecified)	8
C[C@H]1CN([C@@H](C)CO)C(=O)Cc2cc(NC(=O)Cc3cn(C)c4ccccc34)ccc2O[C@@H]1CN(C)S(=O)(=O)c1ccc(Cl)cc1	45
COc1ccc(-c2cc(C(F)(F)F)nc(SCC(=O)N3CCCCCC3)n2)cc1OC	50

# Remaining list, next part.
Compound	NOMO-1 viab
C[C@@H]1CN([C@H](C)CO)C(=O)Cc2cc(NC(=O)Cc3ccccc3)ccc2O[C@H]1CN(C)Cc1ccc(-c2ccccc2)cc1	-2
Cc1ccc(NC(=O)CSc2nc(-c3ccccc3)cc(=O)[nH]2)cc1Cl	-7
COc1ccc(C(=O)Nc2ccccc2C(=O)N2CCN(CCO)CC2)cc1	-4
C[C@H](CO)N1C[C@H](C)[C@H](CN(C)C(=O)Nc2ccc(C(F)(F)F)cc2)Oc2c(NC(=O)NC3CCCCC3)cccc2C1=O	106*
Cc1ccc([N+](=O)[O-])cc1NC(=O)CCn1cnc2ccccc2c1=O	-2
COc1ccc(NC(=O)N(C)C[C@H]2Oc3c(NC(=O)c4cc(C)nn4C)cccc3C(=O)N([C@H](C)CO)C[C@@H]2C)cc1	-5
O=C(COc1cccc(NC(=O)c2cccc([N+](=O)[O-])c2)c1)c1ccc(F)cc1	25
CC(C)NC(=O)N(C)C[C@H]1Oc2ccc(N(C)C)cc2C(=O)N([C@@H](C)CO)C[C@@H]1C	0
Cc1noc(C)c1NC(=O)Nc1cccc2c1O[C@@H](CN(C)S(=O)(=O)c1ccccc1)[C@@H](C)CN([C@@H](C)CO)C2=O	-9
Cc1ccc(N(CC(=O)NC2CCCC2)S(C)(=O)=O)cc1	-5
Cc1ccc(S(=O)(=O)N(C)C[C@@H]2Oc3ccc(N(C)C)cc3CC(=O)N([C@@H](C)CO)C[C@@H]2C)cc1	36
C[C@H](CO)N1C[C@H](C)[C@H](CN(C)S(=O)(=O)c2cccs2)Oc2ccc(NC(=O)C3CC3)cc2CC1=O	18
CCC(Sc1ncccn1)C(=O)Nc1c(C)cccc1C (stereo unspecified)	13
O=C(CSc1nnc(-c2ccncc2)o1)Nc1cccc(C(F)(F)F)c1	6
COc1ccc(NC(=O)N(C)C[C@@H]2Oc3c(NC(=O)NC(C)C)cccc3C(=O)N([C@H](C)CO)C[C@@H]2C)cc1	-3

# 10 compounds from above, ordered by number of heavy atoms, descending.
Compound	NOMO-1 viab
C[C@@H]1CN([C@H](C)CO)C(=O)Cc2cc(NC(=O)Cc3ccccc3)ccc2O[C@H]1CN(C)Cc1ccc(-c2ccccc2)cc1	-2
C[C@H](CO)N1C[C@H](C)[C@H](CN(C)C(=O)Nc2ccc(C(F)(F)F)cc2)Oc2c(NC(=O)NC3CCCCC3)cccc2C1=O	106*
COc1ccc(NC(=O)N(C)C[C@H]2Oc3c(NC(=O)c4cc(C)nn4C)cccc3C(=O)N([C@H](C)CO)C[C@@H]2C)cc1	-5
COc1ccc(NC(=O)N(C)C[C@@H]2Oc3c(NC(=O)NC(C)C)cccc3C(=O)N([C@H](C)CO)C[C@@H]2C)cc1	-3
Cc1ccc(S(=O)(=O)N(C)C[C@@H]2Oc3ccc(N(C)C)cc3CC(=O)N([C@@H](C)CO)C[C@@H]2C)cc1	36
CC(C)NC(=O)N(C)C[C@H]1Oc2ccc(N(C)C)cc2C(=O)N([C@@H](C)CO)C[C@@H]1C	0
O=C(COc1cccc(NC(=O)c2cccc([N+](=O)[O-])c2)c1)c1ccc(F)cc1	25
COc1ccc(C(=O)Nc2ccccc2C(=O)N2CCN(CCO)CC2)cc1	-4
Cc1ccc(NC(=O)CSc2nc(-c3ccccc3)cc(=O)[nH]2)cc1Cl	-7
Cc1ccc(N(CC(=O)NC2CCCC2)S(C)(=O)=O)cc1	-5

# Going on with the list.
Compound	NOMO-1 viab
COc1c(OC)c(O)c2c(=O)c(O)c(-c3ccccc3)oc2c1OC	58
CC1CCc2c(sc3ncnc(SCC(=O)NCc4ccco4)c23)C1 (stereo unspecified)	63
C[C@H](CO)N1C[C@H](C)[C@H](CN(C)Cc2ccccc2)Oc2ccc(NC(=O)CCC(F)(F)F)cc2CC1=O	28
CNS(=O)(=O)c1cc(-c2nnc(Nc3ccc(NC(C)=O)cc3)c3ccccc23)ccc1C	3
C[C@H]1CN([C@@H](C)CO)C(=O)c2cccc(NS(=O)(=O)c3ccc(F)cc3)c2O[C@@H]1CN(C)Cc1ccc(C(=O)Nc2ccccc2N)cc1	94*
CCn1c(SCC(=O)Nc2ccccc2F)nnc1-c1ccccc1	-8
C[C@H]1CN([C@@H](C)CO)C(=O)Cc2cc(NS(=O)(=O)c3cccs3)ccc2O[C@H]1CN(C)Cc1ccncc1	17
COc1ccc(N(CC(=O)Nc2ccc(F)c(F)c2)S(C)(=O)=O)cc1OC	-22
CC1(C)Cc2nc3sc4c(=O)n(CC(=O)NCCc5ccccc5)cnc4c3cc2CO1	-2
CN(CC(=O)Nc1ccccc1C(C)(C)C)S(=O)(=O)c1ccc(Cl)cc1	20
CC1=CC(C)(C)N2C(=O)C(=O)c3cc(OC(=O)CN4C(=O)c5ccccc5C4=O)cc1c32	115*
O=C(Nc1cccc([N+](=O)[O-])c1)c1ccc(Cn2nnc3ccccc32)cc1	15
COc1ccc(NC(=O)Nc2ccc3c(c2)CC(=O)N([C@H](C)CO)C[C@@H](C)[C@H](CN(C)Cc2ccccc2)O3)cc1	3
C[C@@H]1CN([C@H](C)CO)C(=O)c2cc(NC(=O)Cn3cnnn3)ccc2O[C@H]1CN(C)C(=O)NC1CCCCC1	-23
C[C@@H]1CN([C@@H](C)CO)C(=O)Cc2cc(NS(=O)(=O)c3ccc(Cl)cc3)ccc2O[C@@H]1CN(C)CC1CC1	8

# Overlap with the part before: two compounds, followed by the next part.
Compound	NOMO-1 viab
C[C@@H]1CN([C@H](C)CO)C(=O)c2cc(NC(=O)Cn3cnnn3)ccc2O[C@H]1CN(C)C(=O)NC1CCCCC1	-23
C[C@@H]1CN([C@@H](C)CO)C(=O)Cc2cc(NS(=O)(=O)c3ccc(Cl)cc3)ccc2O[C@@H]1CN(C)CC1CC1	8
C[C@H]1CN([C@@H](C)CO)C(=O)c2cccc(NC(=O)C3CC3)c2O[C@@H]1CN(C)C(=O)Nc1ccc2c(c1)OCO2	23
Cc1cc(C)nc(SCC(=O)c2c(C)[nH]c3ccccc23)n1	-16
Cc1ccc(S(=O)(=O)N(C)C[C@H]2Oc3ccc(NC(=O)CCN4CCOCC4)cc3CC(=O)N([C@@H](C)CO)C[C@@H]2C)cc1	-11
COc1ccc(NC(=O)Nc2ccc3c(c2)C(=O)N([C@H](C)CO)C[C@H](C)[C@H](CN(C)Cc2ccc(C(=O)Nc4ccccc4N)cc2)O3)cc1	39
C[C@H](CO)N1C[C@H](C)[C@@H](CN(C)S(=O)(=O)c2ccccc2)Oc2ccc(NC(=O)Nc3ccc(C(F)(F)F)cc3)cc2C1=O	69
C[C@H]1CN([C@@H](C)CO)C(=O)c2cccc(NC(=O)C3CCCCC3)c2O[C@H]1CN(C)Cc1ccc(Oc2ccccc2)cc1	57
O=C(CSc1nc2ccccc2[nH]1)Nc1cccc(C(F)(F)F)c1	43
Cc1ccc(F)c(NC(=O)CSc2nnc(C)s2)c1	2
C[C@H]1CN([C@@H](C)CO)C(=O)Cc2cc(NS(=O)(=O)c3cn(C)cn3)ccc2O[C@@H]1CN(C)S(=O)(=O)c1cccs1	2
COC(=O)c1c(NC(=O)CN2C(=O)c3ccccc3S2(=O)=O)sc2c1CCCC2	-14
COc1cc([N+](=O)[O-])ccc1NC(=O)NCc1ccco1	36
